Source: PubChem
Vaccinia inh: Vaccinia orthopox stage-specific inhibition; Vaccinia-infected cells, mCherry/Venus stage reporter fluorescence; stronger effect = lower value; some inactives read as strong as hits; activity change (mCherry), % (no concentration beside the values); 89,000 tested, 0.01% active;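 active = mCherry past -33% and 40 or more points under the early reporter, replicates agreeing; inconclusive = past -33% without that gap or agreement; tested in A549 cells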;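 note: scaled between vehicle wells and reference inhibitor wells; 23 nL library stock went into each well; one replicate is shown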
Vaccinia inh Venus: recorded beside Vaccinia inh, whose call it bears; activity change (Venus), %; measured here: Venus reporter, other viral stage;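 negative = less Venus signal; first of two replicates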
Starred values were filed as active, the others as inactive. Only part of the results is shown; rates above refer to the full screens.

For COC(=O)C[C@H]1CC[C@@H]2[C@H](COc3ccc(NC(=O)c4ccc(F)cc4)cc3C(=O)N2C)O1 the results were Vaccinia inh 5 and Vaccinia inh Venus 10.
Screening CC(C)NC(=O)N(C)C[C@@H]1Oc2ncc(C#Cc3ccccc3F)cc2C(=O)N([C@H](C)CO)C[C@H]1C returned Vaccinia inh -5 and Vaccinia inh Venus -7.
Screening CN1C(=O)c2cc(NC(=O)c3cccc(F)c3)ccc2OC[C@@H]2O[C@H](CC(=O)NCc3ccccc3Cl)CC[C@@H]21 returned Vaccinia inh -35 and Vaccinia inh Venus -22.
For CCC(=O)N(C)C[C@H]1Oc2cc(C#CCOC)ccc2S(=O)(=O)N([C@@H](C)CO)C[C@@H]1C the results were Vaccinia inh 11 and Vaccinia inh Venus -6.
`O=C(Nc1ccccc1)N1C[C@@H]2[C@H](c3ccccc31)[C@@H](CO)N2C(=O)c1ccncc1` gave Vaccinia inh 17 and Vaccinia inh Venus 9.
C[C@H](CO)N1C[C@H](C)[C@H](CN(C)C(=O)NC2CCCCC2)OCCCC[C@H](C)Oc2ccc(NC(=O)Nc3ccc4c(c3)OCO4)cc2C1=O was read as Vaccinia inh -10 and Vaccinia inh Venus -17.
For CCCC(O)C#Cc1cnc2c(c1)C(=O)N([C@H](C)CO)C[C@H](C)[C@H](CN(C)S(=O)(=O)c1cccc(F)c1)O2 (stereo partly drawn) the results were Vaccinia inh -10 and Vaccinia inh Venus -10.
`O=C(c1ccc(F)cc1)N1[C@@H](CO)[C@@H]2c3ccccc3NC[C@@H]21` gave Vaccinia inh 6 and Vaccinia inh Venus -2.
`Cc1noc(C)c1NC(=O)N(C)C[C@@H]1Oc2ccc(NC(=O)C3CCCCC3)cc2CC(=O)N([C@H](C)CO)C[C@H]1C` gave Vaccinia inh 22 and Vaccinia inh Venus 6.
`C[C@@H]1CCCCO[C@H](CN(C)C(=O)Nc2ccc3c(c2)OCO3)[C@H](C)CN([C@H](C)CO)C(=O)c2cc(NS(=O)(=O)c3ccc(F)cc3)ccc2O1` gave Vaccinia inh -29 and Vaccinia inh Venus -22.
`O=C(c1ccc(F)cc1)N1C[C@@H]2[C@H](c3ccccc31)[C@H](CO)N2Cc1ccc2c(c1)OCO2` gave Vaccinia inh -8 and Vaccinia inh Venus 1.
For O=C(C1CCOCC1)N1CC(=O)N2[C@H](CO)[C@H](c3ccc(C#CC4CC4)cc3)[C@H]2C1 the results were Vaccinia inh -3 and Vaccinia inh Venus 6.
`O=C(c1ccc(F)cc1)N1CC[C@@H]2[C@@H](CO)Nc3ccc(-c4ccccc4F)cc3[C@@H]21` gave Vaccinia inh inconclusive.
For C[C@@H]1CN([C@@H](C)CO)C(=O)c2cc(NC(=O)C3CC3)ccc2O[C@H]1CN(C)Cc1ccncc1 the results were Vaccinia inh 24 and Vaccinia inh Venus 20.
For CO[C@@H]1CN(C)C(=O)c2ccc(NS(=O)(=O)c3cn(C)cn3)cc2OC[C@H](C)N(CC2CC2)C[C@H]1C the results were Vaccinia inh -6 and Vaccinia inh Venus -6.
For Cc1ccc(S(=O)(=O)N(C)C[C@@H]2Oc3ccc(NC(=O)Nc4ccc5c(c4)OCO5)cc3C(=O)N([C@@H](C)CO)C[C@H]2C)cc1 the results were Vaccinia inh 2 and Vaccinia inh Venus 6.
`COc1ccc2c3c([nH]c2c1)[C@H](CO)N(C(=O)c1ccc(F)cc1)CC31CN(Cc2cccnc2)C1` gave Vaccinia inh 9 and Vaccinia inh Venus 0.
COc1ccc(S(=O)(=O)N(C)C[C@@H]2OCCCC[C@H](C)Oc3ccc(NC(=O)NC(C)C)cc3C(=O)N([C@H](C)CO)C[C@@H]2C)cc1 was read as Vaccinia inh 1 and Vaccinia inh Venus -1.
N#C[C@@H]1[C@@H](c2ccc(-c3ccccc3)cc2)[C@H](CO)N1C(=O)Cc1ccccc1 was read as Vaccinia inh -16 and Vaccinia inh Venus -3.
Screening C[C@@H]1CN([C@H](C)CO)C(=O)c2cc(NC(=O)CCC(F)(F)F)ccc2O[C@H]1CN(C)C(=O)NC1CCCCC1 returned Vaccinia inh 27 and Vaccinia inh Venus 5.
Screening CN1c2ccc(-c3cccc(F)c3)cc2[C@H]2[C@H](CCN2C(=O)CC2CC2)[C@@H]1CO returned Vaccinia inh -5 and Vaccinia inh Venus -10.
`C[C@@H]1CN([C@@H](C)CO)C(=O)c2cc(-c3ccccc3)cnc2O[C@H]1CN(C)C(=O)Nc1ccccc1F` gave Vaccinia inh 11 and Vaccinia inh Venus 9.
Screening C[C@@H]1CN([C@@H](C)CO)C(=O)c2cc(C#CC3CC3)cnc2O[C@@H]1CN(C)S(=O)(=O)c1cccc(F)c1 returned Vaccinia inh 0 and Vaccinia inh Venus -11.
Screening O=C(Nc1ccccc1)N1C[C@@H]2N[C@H](C1)[C@@H]2c1ccc(/C=C/c2ccccc2)cc1 returned Vaccinia inh inconclusive.
O=C(C[C@H]1CC[C@H]2[C@@H](COC[C@@H](O)CN2C(=O)c2ccncc2)O1)NC1CCC1 was read as Vaccinia inh 9 and Vaccinia inh Venus 3.
Screening COc1ccc(CN(C)C[C@H]2Oc3ccc(NS(=O)(=O)c4ccc(OC)cc4)cc3C(=O)N([C@H](C)CO)C[C@@H]2C)cc1 returned Vaccinia inh 8 and Vaccinia inh Venus 8.
C[C@@H]1CN([C@H](C)CO)C(=O)Cc2cc(NS(=O)(=O)c3ccc(Cl)cc3)ccc2O[C@@H]1CN(C)C(=O)Nc1cccc2ccccc12 was read as Vaccinia inh 17 and Vaccinia inh Venus 9.
O=C(NCC[C@@H]1CC[C@@H](NC(=O)C2CCCCC2)[C@@H](CO)O1)c1cnccn1 was read as Vaccinia inh 7 and Vaccinia inh Venus 5.
`C[C@@H](NC(=O)C[C@@H]1C[C@@H]2c3cc(NC(=O)C4CCC4)ccc3O[C@@H]2[C@@H](CO)O1)c1ccccc1` gave Vaccinia inh 17 and Vaccinia inh Venus 7.
For CN1[C@@H]2c3ccc(-c4ccccc4F)c(=O)n3C[C@@H]2[C@@H](CO)[C@@H]1C(=O)NCC(F)(F)F the results were Vaccinia inh 5 and Vaccinia inh Venus 5.
`CN1C(=O)c2cc(NS(=O)(=O)c3cccc(F)c3)ccc2OC[C@@H]2O[C@@H](CC(=O)NCCN3CCCCC3)CC[C@H]21` gave Vaccinia inh 6 and Vaccinia inh Venus 0.
Screening Cc1noc(C)c1NC(=O)Nc1ccc2c(c1)C(=O)N([C@@H](C)CO)C[C@@H](C)[C@H](CN(C)Cc1ccc3c(c1)OCO3)O2 returned Vaccinia inh 5 and Vaccinia inh Venus -1.
`Cc1noc(C)c1NC(=O)NCC[C@H]1CC[C@@H](NC(=O)Nc2cccc(Cl)c2)[C@@H](CO)O1` gave Vaccinia inh -4 and Vaccinia inh Venus 0.
`COc1ccc(NC(=O)Nc2cccc3c2O[C@@H](CN(C)CC2CCCCC2)[C@@H](C)CN([C@@H](C)CO)C3=O)cc1` gave Vaccinia inh -16 and Vaccinia inh Venus -12.
O=C(C[C@@H]1C[C@@H]2c3cc(NC(=O)c4cccnc4)ccc3O[C@@H]2[C@H](CO)O1)NCc1ccccc1 was read as Vaccinia inh 5 and Vaccinia inh Venus 2.
`O=C(C[C@@H]1C[C@H]2c3cc(NC(=O)Nc4ccccc4F)ccc3O[C@H]2[C@H](CO)O1)NCC1CC1` gave Vaccinia inh 0 and Vaccinia inh Venus 2.
For Cc1noc(C)c1NC(=O)Nc1ccc2c(c1)C(=O)N([C@@H](C)CO)C[C@@H](C)[C@H](CN(C)S(C)(=O)=O)O2 the results were Vaccinia inh -3 and Vaccinia inh Venus -2.
`C[C@@H]1CCCCO[C@@H](CN(C)C(=O)NC2CCCCC2)[C@H](C)CN([C@H](C)CO)C(=O)c2cc(NC(=O)Nc3ccc4c(c3)OCO4)ccc2O1` gave Vaccinia inh -34 and Vaccinia inh Venus -33.
`O=C(C[C@H]1CC[C@H]2[C@@H](COC[C@@H](O)CN2C(=O)c2ccccn2)O1)N1CCN(c2ccccc2)CC1` gave Vaccinia inh 7 and Vaccinia inh Venus 10.
Screening COc1ccc(NC(=O)N(C)C[C@H]2Oc3ccc(NS(=O)(=O)c4ccc(OC)cc4)cc3C(=O)N([C@@H](C)CO)C[C@@H]2C)cc1 returned Vaccinia inh -9 and Vaccinia inh Venus -4.

5 entries drawn at random from those above, as already listed:
Screening COc1ccc(CN(C)C[C@H]2Oc3ccc(NS(=O)(=O)c4ccc(OC)cc4)cc3C(=O)N([C@H](C)CO)C[C@@H]2C)cc1 returned Vaccinia inh 8 and Vaccinia inh Venus 8.
O=C(C[C@H]1CC[C@H]2[C@@H](COC[C@@H](O)CN2C(=O)c2ccncc2)O1)NC1CCC1 was read as Vaccinia inh 9 and Vaccinia inh Venus 3.
For CN1[C@@H]2c3ccc(-c4ccccc4F)c(=O)n3C[C@@H]2[C@@H](CO)[C@@H]1C(=O)NCC(F)(F)F the results were Vaccinia inh 5 and Vaccinia inh Venus 5.
`O=C(C[C@@H]1C[C@H]2c3cc(NC(=O)Nc4ccccc4F)ccc3O[C@H]2[C@H](CO)O1)NCC1CC1` gave Vaccinia inh 0 and Vaccinia inh Venus 2.
Screening CN1c2ccc(-c3cccc(F)c3)cc2[C@H]2[C@H](CCN2C(=O)CC2CC2)[C@@H]1CO returned Vaccinia inh -5 and Vaccinia inh Venus -10.

Following part:
COc1ccc2c3c(n(C)c2c1)[C@@H](CO)N(C(=O)NC(C)C)CC31CN(C(=O)NC(C)C)C1 was read as Vaccinia inh 22 and Vaccinia inh Venus 12.
Screening C[C@@H]1CN([C@@H](C)CO)C(=O)c2cc(-c3cncnc3)cnc2O[C@H]1CN(C)C(=O)Nc1ccc2c(c1)OCO2 returned Vaccinia inh 25 and Vaccinia inh Venus 6.
Screening O=C(C[C@@H]1C[C@H]2c3cc(NC(=O)C4CCC4)ccc3O[C@H]2[C@H](CO)O1)NCC1CC1 returned Vaccinia inh 7 and Vaccinia inh Venus -3.
For C[C@@H]1CN([C@@H](C)CO)C(=O)Cc2cc(NC(=O)Nc3ccccc3)ccc2O[C@@H]1CN(C)Cc1ccc2c(c1)OCO2 the results were Vaccinia inh -26 and Vaccinia inh Venus -19.
Screening C[C@H]1CN([C@@H](C)CO)C(=O)c2cc(-c3ccccc3)cnc2O[C@H]1CN(C)C(=O)c1ccccc1F returned Vaccinia inh 21 and Vaccinia inh Venus 3.
Cc1cc(C(=O)Nc2cccc3c2O[C@H](CN(C)CC2CC2)[C@@H](C)CN([C@@H](C)CO)C3=O)n(C)n1 was read as Vaccinia inh -2 and Vaccinia inh Venus 12.
For COCC(=O)N(C)C[C@H]1Oc2ncc(C#Cc3cccnc3)cc2C(=O)N([C@@H](C)CO)C[C@H]1C the results were Vaccinia inh 3 and Vaccinia inh Venus 4.
`COCCNC(=O)C[C@@H]1C[C@@H]2c3cc(NC(=O)c4ccc5c(c4)OCO5)ccc3O[C@@H]2[C@H](CO)O1` gave Vaccinia inh 2 and Vaccinia inh Venus 3.
For C[C@@H]1CN([C@@H](C)CO)C(=O)c2cccc(NC(=O)NC3CCCCC3)c2O[C@@H]1CN(C)S(=O)(=O)c1cn(C)cn1 the results were Vaccinia inh 12 and Vaccinia inh Venus 14.
`CO[C@@H]1CN(C)C(=O)c2ccc(NS(C)(=O)=O)cc2OC[C@@H](C)N(CC2CCCCC2)C[C@H]1C` gave Vaccinia inh 9 and Vaccinia inh Venus 8.
Screening C[C@@H]1CN([C@@H](C)CO)C(=O)c2cc(-c3ccc(F)cc3)cnc2O[C@H]1CN(C)S(C)(=O)=O returned Vaccinia inh 14 and Vaccinia inh Venus 15.
For N#C[C@H]1[C@H](c2ccc(-c3ccccc3F)cc2)[C@H](CO)N1C(=O)C1CC1 the results were Vaccinia inh -10 and Vaccinia inh Venus 1.
For CC(C)NC(=O)Nc1ccc2c(c1)C(=O)N([C@@H](C)CO)C[C@@H](C)[C@@H](CN(C)S(=O)(=O)c1cn(C)cn1)OCCCC[C@H](C)O2 the results were Vaccinia inh 26 and Vaccinia inh Venus 16.
For C[C@@H]1CN([C@@H](C)CO)C(=O)Cc2cc(NC(=O)Cc3ccccc3)ccc2O[C@@H]1CN(C)S(=O)(=O)c1ccc(F)cc1 the results were Vaccinia inh 0 and Vaccinia inh Venus 2.
`C[C@H]1CN([C@@H](C)CO)C(=O)c2cccc(NC(=O)c3nc4ccccc4s3)c2O[C@H]1CN(C)Cc1ccc(C(F)(F)F)cc1` gave Vaccinia inh -9 and Vaccinia inh Venus -4.
For C[C@H]1CN([C@@H](C)CO)C(=O)c2cccc(NC(=O)Nc3ccc(F)cc3)c2O[C@@H]1CN(C)C the results were Vaccinia inh -4 and Vaccinia inh Venus -7.
Screening C[C@H]1CN([C@@H](C)CO)C(=O)c2cccc(NC(=O)CCCCCC(=O)Nc3ccccc3N)c2O[C@@H]1CN(C)S(=O)(=O)c1ccc(F)cc1 returned Vaccinia inh -12 and Vaccinia inh Venus -1.
Screening CO[C@@H]1CN(C)C(=O)c2ccc(NC(=O)c3cc(C)on3)cc2OC[C@@H](C)N(C(C)=O)C[C@@H]1C returned Vaccinia inh 20 and Vaccinia inh Venus 12.
Cc1ccc(S(=O)(=O)N(C)C[C@H]2Oc3c(NC(=O)c4ccc(-c5nccs5)cc4)cccc3C(=O)N([C@H](C)CO)C[C@@H]2C)cc1 was read as Vaccinia inh -6 and Vaccinia inh Venus -10.
CC(C)NC(=O)Nc1ccc2c(c1)C(=O)N([C@H](C)CO)C[C@H](C)[C@@H](CN(C)C)O2 was read as Vaccinia inh 10 and Vaccinia inh Venus 8.
